# Source: PubChem BioAssay
# D2 PAM: human D2 receptor positive allosteric modulation; potentiation, % (concentration not given with the values); P14416; DiscoveRx D2 beta-arrestin cells, luminescence, 90 min; 100% = 57 uM dopamine signal; 0.23% of 360,000 active; AID 624464; active = potentiation of 50% or more; inconclusive = 30% to 50%; inactive = 30% or less;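 note: compound concentration not given in the record; tested on top of an EC20 dose of dopamine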
# Target sequence (P14416 whole entry, looked up): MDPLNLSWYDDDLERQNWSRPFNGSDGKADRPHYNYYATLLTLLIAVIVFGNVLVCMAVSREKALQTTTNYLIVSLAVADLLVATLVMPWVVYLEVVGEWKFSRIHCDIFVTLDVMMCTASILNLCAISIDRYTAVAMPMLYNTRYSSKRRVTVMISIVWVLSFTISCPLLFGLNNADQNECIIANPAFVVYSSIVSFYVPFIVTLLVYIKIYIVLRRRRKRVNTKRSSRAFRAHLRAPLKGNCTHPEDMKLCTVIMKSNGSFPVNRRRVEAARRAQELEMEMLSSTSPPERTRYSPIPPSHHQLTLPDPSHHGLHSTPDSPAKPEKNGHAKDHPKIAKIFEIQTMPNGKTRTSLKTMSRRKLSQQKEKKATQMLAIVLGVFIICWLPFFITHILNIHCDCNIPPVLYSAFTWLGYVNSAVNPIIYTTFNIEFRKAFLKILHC
#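 D2 cells co-treated with compound plus 50 nM dopamine (EC20) for 90 min at 37 deg C to detect potentiation. Beta-arrestin recruitment was read as enzyme-fragment luminescence after 1 h at ambient temperature. Full response was set by 57 uM dopamine.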
# Sfp PPTase inh: inhibitors of Bacillus subtilis Sfp phosphopantetheinyl transferase. 3.5% of 310,000 active. Potency, µM, without a hit: max response, negative = inhibition, hits mostly inhibitors. Biochemical Sfp PPTase activity, qHTS; active = well fitted inhibition curve with a large enough effect; inconclusive = small, poorly fitted or top-dose-only effect, or another doubt; inactive = no such curve, though single readings can be large or run the other way;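 note: the enzyme is Sfp with the accession as filed and its product quenches rhodamine fluorescence; potency is the fitted concentration of half-maximal effect; 0% = enzyme reaction without inhibitor and -100% = no enzyme wells; top concentration of the series not given in the record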
#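 With Hepes-Na pH 7.6 buffer containing 10 mM MgCl2, Sfp (15 nM) modified BHQ-2-YbbR (12.5 uM) using rhodamine-CoA (5 uM). Two reads 30 minutes apart at 525/598 nm yielded each well's rate.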
# TRPV1 potentiator: potentiators of human vanilloid receptor 1 (TRPV1). Q8NER1. TRPV1-expressing cells, Fluo-8 calcium influx, capsaicin EC20 potentiation; host cell line not named in the record; control for the full effect not named in the record. potentiation, % at 8.33 µM. 0.02% of 320,000 active. AID 540277; active means potentiation above 80%; inconclusive means 30% to 80%; inactive means below 30%; note: 0% is about no effect
#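 TRPV1-expressing cells were cultured overnight at 35.5C and loaded with Fluo-8 calcium dye for 40 to 90 min at room temperature. After a 10 s baseline, compound was added and calcium influx was read kinetically for 3 min (ex 480/em 520 nm).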
# gsp ag: agonists of gsp mutant (McCune-Albright syndrome); gsp mutant cells, cAMP HTRF, 30 min; control for the full effect not named in the record; Potency, µM (titrated, usually from 76.9 µM), for the others: at the top dose activation (cAMP increase), usual class: activators; 0.13% of 340,000 active; active = well fitted activation curve with a large enough effect; inconclusive = small, poorly fitted or top-dose-only effect, or another doubt; inactive = no such curve, though single readings can be large or run the other way; cell line not stated here;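 note: phosphodiesterase inhibitor Ro 20-1724 added with compounds to block cAMP breakdown; potency is the fitted concentration of half-maximal effect; nearly all actives have a fitted effect of over 60% in size; about a fifth of the inactives were tested at one dose only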
#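 Cells in DMEM/10% FBS with G418 were pretreated with compounds in DMSO plus […] (300 uM stock) for 30 min at 37C. cAMP was measured by HTRF (cAMP-d2 plus anti-cAMP antibody-K) after 30 min at room temperature.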
# Menin-MLL FL inh: menin-MLL binding inhibition, fluorescein peptide | Fluorescence polarization, fluorescein-MLL peptide displacement from menin | FP activity change, % at 61.4 µM | 290,000 tested, under 10 active | AID 1766; inconclusive = falling polarisation curve, or a change in total fluorescence; inactive = total fluorescence flat and polarisation flat or rising; no compound was filed as active; the % refers to the polarisation; negative = inhibition;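 note: % of control where 0% means no effect; inhibitors lower the polarisation; unlabelled MLL peptide was the positive control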
# gsp antagonist: antagonizes gsp, the McCune-Albright syndrome mutation; 0.4% of 340,000 active; gsp-mutant cells, cAMP HTRF, 30 min; control for the full effect not named in the record; Potency, µM (titrated, usually from 76.9 µM), without a hit: at the top dose activity change, negative = inhibition, usual class: inhibitors; AID 624288; active = falling curve of any shape with a large fitted effect; inconclusive = falling curve, mostly with a smaller effect; inactive = flat or rising curve; cell line not stated here;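 note: intracellular cAMP measured with PDE inhibitor Ro 20-1724 present during compound exposure; potency is the fitted concentration of half-maximal effect; % is set by controls: 0 for no effect and ±100 for the full control effect; nearly all actives have a fitted effect of over 65% in size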
#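 G418-selected cells were plated in DMEM/10% FBS for 16-24 h at 37C, then treated with compounds plus the PDE inhibitor […] (300 uM solution added) for 30 min at 37C. Intracellular cAMP was measured by HTRF after 30 min lysis at room temperature.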
# ClpP mod: qHTS Assay for Activators of ClpP. AID 651965, 2013. 1.9% of 340,000 active. purified B. subtilis ClpP, FRET peptide cleavage, 20 min. ATP-dependent Clp protease proteolytic subunit (Bacillus subtilis (strain 168)), P80244. Potency, µM (top dose mostly 57.5 µM), for the others: at the top dose activity change, negative = active; active = well fitted falling curve with a large enough effect; inconclusive = small, poorly fitted or top-dose-only effect; inactive = no such curve, though single readings can be large or run the other way; note: potency is the fitted concentration of half-maximal effect; the source files actives as falling curves though it sought activators and does not explain the sign; nearly all actives have a fitted effect of over 65% in size; many hits overshoot -100%
# Target sequence (P80244 whole entry, looked up): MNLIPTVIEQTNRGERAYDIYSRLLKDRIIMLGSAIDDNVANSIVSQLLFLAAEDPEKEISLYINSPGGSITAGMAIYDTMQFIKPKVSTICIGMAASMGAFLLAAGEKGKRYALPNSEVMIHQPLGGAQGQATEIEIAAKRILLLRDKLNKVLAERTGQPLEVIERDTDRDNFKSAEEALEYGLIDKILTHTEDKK
#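 Purified B. subtilis ClpP, 10 microg/mL final in Tris/HCl pH8 with KCl, BSA, glycerol and Tween-20, cleaved an Abz/nitrotyrosine-quenched decapeptide. Fluorescence (ex 320, em 430) was read at 0 and 20 min at room temperature. Delta was normalized to 5.8 microM ADEP and DMSO/no-enzyme controls.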
# The depositor's hits bear a star; ? = inconclusive; . = no result given; & = joins results of further samples; [ ] = another dose, or the depositor's remark.
SMILES,D2 PAM,Sfp PPTase inh,TRPV1 potentiator,gsp ag,Menin-MLL FL inh,gsp antagonist,ClpP mod
CCOC(=O)c1c(NC(=O)CSc2nnc(CNc3ccc(F)cc3)o2)sc(C(C)=O)c1C,14,4%,-10,?,8.8,?,0.9%
COc1ccc(S(=O)(=O)CCC(=O)NCc2ccc(C)o2)cc1,10,50µM*,-3,14%,-0.1,1%,-2.2%
CC[C@]12c3[nH]c4cc(-c5ccco5)ccc4c3CCN1C(=O)[C@@H](CC(=O)NC/C=C(\C)CCC=C(C)C)C[C@@H]2C(=O)N1CCN(C(=O)c2ccco2)CC1,-8,.,.,.,.,-16%,-15%
O=C(N/N=C\c1ccc(Cl)s1)c1cccs1,-20,-1%,-11,27%,2.5,5%,-7.0%
O=C(O)CCCC(=O)Nc1ccccc1Oc1ccccc1,0,14%,2,-4%[15.4 µM],-0.5,2%,.
CCN1CCc2c(sc(NC(=O)c3ccc(S(=O)(=O)N4CC(C)OC(C)C4)cc3)c2C(N)=O)C1 (stereo unspecified),-16,-1%,0,?,12,-6%,-9.7%
Cc1cc(NC(=O)CC2(CC(=O)O)CCCC2)n(C)n1,-8,26%,-1,-8%[15.4 µM],-2.7,9%,.
CCc1ccc(CN2C(=O)CCC2(C)C(=O)NC2CCCC2)cc1 (stereo unspecified),-8,-4%,4,-55%[inhibitor],2.7,15%,-1.4%
CC(C)=CCN1CCN(Cc2ccc(Sc3nncn3C)o2)CC1CCO (stereo unspecified),-1,0%,-4,10%[15.4 µM],-0.8,7%,.
CCCCOC(=O)c1ccc(Nc2ncnc3nc[nH]c23)cc1,4,0%,4,12%,0.0,-5%,4.8%
O=C1CCCN2N=C(SCC(=O)Nc3cccc(C(F)(F)F)c3)SC2=N1,-10,17%,-5,1%,3.7,-7%,.
Cc1ccccc1CN(C)C(=O)c1ccc2ccccc2n1,1,11%,-1,-9%[15.4 µM],-5.5,1%,.
Cc1c(Cl)c([N+](=O)[O-])nn1CCCC(=O)N1CCN(c2ccccc2)CC1,-9,19%,4,4%,-3.2,-4%,1.2%
N#CC1(Cc2ccccc2Cl)c2ccccc2C=CN1C(=O)c1ccccc1 (stereo unspecified),-2,18%,7,7%,0.6,1%,-3.0%
O=C(CN1CCN(S(=O)(=O)N2CCCCC2)CC1)Nc1ccc(Cl)c(Cl)c1,-5,0%,28,4%[15.4 µM],-9.7,?,1.0%
COc1ccc(NC(=S)Nc2ccccc2SC)c(OC)c1,-10,-27%,-2,-5%[15.4 µM],-0.8,5%,1.3%
Cc1ccc(C)c(N2CCN(C(=O)C34CC5CC(C3)CC(n3nnc(C)n3)(C5)C4)CC2)c1,?,-14%,-6,-3%[15.4 µM],-0.5,40µM*,0.2%
O=C(Cc1ccccc1)N1CCN=C1SCc1ccc([N+](=O)[O-])cc1,-5,5%,6,3%,3.2,0%,-1.4%
CCn1c(/C=C/c2ccc(O)c(O)c2)nc2ccccc2c1=O,0,79µM*,13,-11%,?,-21%,-2.6%
CCN(CC)CCCN1CC(O)=C(c2nc3ccccc3s2)C1=N,-32,0%,-3,-22%,1.6,-9%[15.4 µM],?
CCc1nc2c(sc3nc4c(cc32)COC(C)(C)C4)c(=O)n1Cc1ccco1,-2,3.5µM*,5,0%,13,-14%,-24%
COCCn1c(SCC(=O)c2[nH]c(C)c(C(C)=O)c2C)nc2ccccc2c1=O,-12,18%,-22,-37%[inhibitor],4.2,-12%,-11%
CCOC(=O)C1(Cc2ccccc2C)CCCN(C(=O)CCc2c(C)noc2C)C1 (stereo unspecified),-8,11%,-42,-35%[inhibitor],.,-10%,-0.4%
N#CCC(=O)Nc1ccc(C(=O)NNC(=S)NC2CCCCC2)cc1,-18,.,.,-6%[15.4 µM],.,14%,-4.4%
Cc1ccc(/C=C/C(=O)OCC(=O)N(C)c2c(N)n(Cc3ccccc3)c(=O)[nH]c2=O)o1,-6,.,.,1%,.,.,-0.3%
Cc1ccc(N2C3=C(C(=O)CC(C)(C)C3)C(c3cn(C)nc3C)C3=C2CC(C)(C)CC3=O)cc1,-6,.,.,?,.,?,3.7%
CCOC(=O)c1c(C)[nH]c(C)c1C(=O)COC(=O)c1ccc([N+](=O)[O-])s1,11,.,-21,-18%,.,-19%,2.0%
COc1ccc(OCC(=O)N/N=C(\CCC(=O)O)c2cccs2)cc1,-1,-5%,28,1%[15.4 µM],-12,-8%,1.1%
COc1ccc(CNc2ccc3c(c2)nc(C)n3C)cc1,4,6%,-1,19%,2.6,?,?
COc1ccccc1N(C)S(=O)(=O)c1ccc(C(=O)NCc2ccc3c(c2)OCO3)cc1,-31,15%,-4,-5%[15.4 µM],3.4,.,.
N#C/C(=C\C=C\c1ccccc1)c1nc(-c2ccc3c(c2)OCO3)cs1,-18,4%,30,-2%[15.4 µM],?,0%,0.8%
CC(C)Oc1ccc(N2CC(C(=O)Nc3ccccn3)CC2=O)cc1 (stereo unspecified),-4,18%,-20,-9%,0.8,-7%,-2.3%
C=CCNC(=O)c1ccc(OC)cc1,-7,15%,27,-42%[inhibitor],1.3,0%,2.1%
Clc1ccc(-c2nnc3sc(-c4ccc(Br)o4)nn23)c(Cl)c1,1,12%,9,-17%,1.2,-1%,?
Clc1ccc(C2[C@H]3CN(Cc4cccnc4)[C@H](c4ccccc4)C34CC2(c2cccnc2)C4)cn1 (stereo partly specified),-16,10%&7%,?,3%,-1.5&3.1,?,-4.2%
CCOC(=O)N1CCN(c2c(NCCN3CCN(Cc4ccccc4)CC3)c(=O)c2=O)CC1,-5,2%,10,-120%[inhibitor],0.2,3%,0.4%
Cn1ncc2cc(NC(=S)NC(=O)c3ccccc3)ccc21,-4,-7%,8,-21%,2.1,40µM*,27%
CCCCNC(=O)CCCCn1c(=S)[nH]c2c([nH]c3ccc(OC)cc32)c1=O,-8,6%,13,21%,-3.1,0%,0.5%
CC(=O)N1CCN(S(=O)(=O)c2cccc(C(=O)Nc3nc4ccccc4[nH]3)c2)CC1,-8,19%,9,3%,4.3,3%,-7.2%
COc1ccc([C@H]2C[C@@H](n3cc(C4CC4)nn3)[C@H](O)CN2C(=O)C2CCCCC2)cc1,-5,.,.,?,.,.,0.5%
CCOC(=O)CN1C(=O)C2Cc3ccccc3CN2C1=S (stereo unspecified),0,-3%,5,0%,-2.2,-7%,1.7%
CCCNC(=O)N1c2ccccc2Sc2ccccc21,-8,7%,3,4%[15.4 µM],0.6,-22%,0.9%
O=c1oc(-c2ccccc2Cl)nc2ccsc12,-13,20%,5,-2%[15.4 µM],-1.7,?,0.7%
CCOC(=O)CC(C#N)c1cn(C)c2ccccc12 (stereo unspecified),-6,-5%,-3,-56%[inhibitor],5.4,-12%,-2.4%
O=C(CCNS(=O)(=O)c1ccc(Cl)cc1)OCC(=O)c1ccc[nH]1,-2,12%,11,-7%[15.4 µM],2.0,-20%,.
O=C(c1ccccn1)N1CC=C(c2ccccc2)CC1,-1,4%,-14,7%[15.4 µM],-0.6,.,.
CCN(CC)CCCNC(=O)CCc1ccccc1,-8,-2%,-6,-18%,-0.2,7%,1.0%
Cc1ccc(S(=O)(=O)N2CCCCC2)cc1C(=O)Nc1ccc2cn[nH]c2c1,-1,5%,1,10%,-1.7,-8%,-1.3%
COc1ccccc1NC(=O)CSc1nnc(C)n1CCc1ccccc1,-4,-6%,16,21%,0.7,10%,1.3%
COC(=O)CSc1nnc(CNC(=O)Cc2ccccc2)n1C,6,-4%,-9,23%,-1.2,9%,-2.3%

# Carrying on.
SMILES,D2 PAM,Sfp PPTase inh,TRPV1 potentiator,gsp ag,Menin-MLL FL inh,gsp antagonist,ClpP mod
Cc1ccc(NC(=S)N(CCCN2CCC(C)CC2)Cc2ccco2)cc1,-11,6%,8,-15%[15.4 µM],-1.9,5%,?
COC(=O)c1[nH]c2cccc(Cl)c2c1NC(=O)CN1CCCCC1C (stereo unspecified),-16,-6%,2,-4%,-1.4,-14%,-7.1%
COc1ccccc1CCc1nnc(CCC(=O)NCCOc2cccnc2)o1,-2,-2%,2,27%,0.6,-2%,.
CCCCCC(=O)OC(CN1CCCCCC1)CN1CCCC1=O (stereo unspecified),-23,1%,-12,22%,2.1,4%,-0.3%
O=C(Cn1nnc(-c2ccccc2)n1)NNC(=O)c1ccco1,-2,7%,-1,0%[15.4 µM],-2.3,7%,-3.3%
O=C(c1ccc(Br)cc1)c1coc2ccc(O)cc12,5,.,.,-1%[15.4 µM],.,-6%,.
CCOC(=O)c1nnn(-c2nonc2N)c1COc1c(C=O)cccc1OC,-1,25%,1,-40%,3.5,2%,-1.2%
O=C(Nc1ccc(F)cc1)c1cc(-c2ccncc2)nc2c(Cl)cccc12,3,-9%,3,-19%,.,-22%,-2.6%
Cc1cccc(OC(C)C(=O)Nc2nccs2)c1 (stereo unspecified),-29,-2%,-4,3%,.,-10%,1.9%
Fc1ccc(-c2cc3nc4c(c(N5CCOCC5)n3n2)CCCC4)cc1,10,-25%,-22,-50%[inhibitor],0.2,-19%,-15%
COc1ccc(S(=O)(=O)NC(C)C(=O)Nc2ccc3c(c2)OCCO3)cc1OC (stereo unspecified),-2,12%,-2,?,?,9%,.
CCC(C)(C)NC(=O)CN(Cc1ccc2c(c1)OCO2)C(=O)CCC(=O)Nc1cc(C)ccn1,-8,9%,-4,-4%[15.4 µM],.,-11%,-0.1%
O=C(Nc1ccccc1F)N(CCCN1CCOCC1)Cc1cc2cc3c(cc2[nH]c1=O)OCCO3,-17,18%,10,-35%[inhibitor],0.5,18%,20µM*
CC1CCc2c(sc(NC(=O)c3noc4c3CCCC4)c2C(N)=O)C1 (stereo unspecified),2,.,.,?,.,15%,1.1%
CNC(=O)CSc1nnc(-c2ccccn2)n1Cc1ccco1,6,5%,.,?,1.3,7%,-3.7%

# This is a random part of the collection. About 5.1% of those tested had a hit in this group.
